# Source: PubChem
# Vaccinia mCherry – vaccinia inhibition (mCherry reporter); Vaccinia virus mCherry reporter infection, fluorescence; about a quarter of the inactives have no number; AID 720579; 310,000 compounds, 0.63% hits; Potency, µM (series often up to 36.5 µM), for the others: at the top dose activity change, negative = inhibition, hits mostly inhibitors; active = well fitted inhibition curve with a large enough effect; inconclusive = small, poorly fitted or top-dose-only effect; inactive = no such curve, though single readings can be large or run the other way; tested in A549 cells; also: nearly all actives have a fitted effect of over 35% in size; inactives centre near -10
# Vaccinia Venus – vaccinia inhibition (Venus reporter); Vaccinia virus Venus reporter expression, fluorescence; Potency, µM (titrated, usually from 36.5 µM), for inactives: at the highest dose activity change, negative = inhibition, actives largely listed as inhibitors; 330,000 compounds, 0.46% hits; AID 720580; active means well fitted inhibition curve with a large enough effect; inconclusive means small, poorly fitted or top-dose-only effect; inactive means no such curve, though single readings can be large or run the other way; tested in A549 cells; also: nearly all actives have a fitted effect of over 30% in size; inactives centre near -10
# Active calls of the source: *; i = inactive; ? = inconclusive; nt = no result given; [ ] = remark or other dose. % is scaled to controls: 0 for no effect and ±100 for the full control effect; potency is read from the fitted curve at half-maximal effect.
smiles,Vaccinia mCherry,Vaccinia Venus
Cc1ccc(Oc2ccccc2NC(=O)CSCC(=O)Nc2cc(C)on2)cc1,-1%,-17%
C[N+]1(C)CC[C@H](OC(=O)[C@@](O)(c2ccccc2)C2CCCC2)C1,-21%,-17%
NC(=O)CSc1nc2cc(S(=O)(=O)N3CCOCC3)ccc2o1,?,?
COCCn1nnnc1CN(Cc1cc2cc(OC)c(OC)cc2[nH]c1=O)C1CCCC1,nt,-11%
CSCCC(NC(=O)COc1ccccc1)C(=O)N(C)CC(=O)Nc1ccc(C)cc1 (stereo not given),-7%,-13%
Cc1cccc(CC(=O)Nc2cc(=O)n(C)c(=O)n2C)c1,4%,1%
Clc1ccc(C2N3CCCN23)c(Cl)c1 (stereo not given),-13%,-7%
COc1ccc(S(=O)(=O)c2cn(Cc3ccccc3)c3cc(N4CCCC4)c(F)cc3c2=O)cc1,-12%,-5%
CCCOc1ccc(/C=N/NC(=O)C(C)Sc2ccccn2)cc1OCC (stereo not given),i,-4%
COc1ccccc1N1CCN(C(C)C(=O)N2CC(C)OC(C)C2)CC1 (stereo not given),-1%,-9%
c1coc(CNc2nc(-c3ccncc3)cs2)c1,-24%,-15%
COc1cc(-c2[nH]ncc2CN2CCCC2c2nonc2C)cc(OC)c1OC (stereo not given),i,-16%
COc1ccc(C(C#N)N2N=C(C)CC2(C)C)cc1 (stereo not given),5%,4%
CC(C)(C)c1ccc(C(=O)Nc2cccc3c(=O)[nH][nH]c(=O)c23)cc1,-22%,-14%
CCNc1oc(COc2cccc(C)c2)nc1C#N,-15%,-3%
CSc1oc(-c2cccs2)nc1S(=O)(=O)c1ccccc1,-2%,-1%
Cc1ccc(C)c(Nc2ncccc2C(=O)NCc2cccs2)c1,?,?
CCc1ccc(CNC(=O)c2ccc(OC3CCN(C(C)=O)CC3)c(OC)c2)nc1,i,-7%
Brc1cc2c(cc1C1OCCO1)OCO2,i,-17%
CCOC(=O)C1CCN(C(=O)CCc2nnc3ccc(N4CCC(C)CC4)nn23)CC1,?,?
CCOC(=O)N1CCC(N(CCOC)C(=O)Nc2ccc(Cl)c(Cl)c2)CC1,-1%,12%
COc1cc(NC(=O)C2CCN(S(=O)(=O)c3cccs3)CC2)c(C(=O)O)cc1OC,-10%,0%
CC(C)OCCCNC(=O)c1ccc(Cn2c(=O)c3cccn3c3cccnc32)cc1,i,-10%
COc1ccc2nc(N3CCCC3)[nH]c2c1,-2%,-13%
Cc1ccccc1OCc1ccc(-c2nc(C#N)c(NCc3cccnc3)o2)o1,?,?
CC(Sc1n[nH]c(-c2cccs2)n1)C(=O)N1CCCC1 (stereo not given),i,-3%
O=S(=O)(c1ccc(Cl)cc1)c1nc(-c2cccs2)oc1SCc1ccc(F)cc1,-15%,-21%
COc1ccc(CNC(=O)Cn2c(SCC(=O)N(C)c3ccccc3)nc3ccccc32)cc1,-1%,-6%
COc1ccc(S(=O)(=O)N2CCN(C(=O)C3CCCO3)CC2)cc1 (stereo not given),-10%,-14%
O=C(NNc1ccc(F)cc1)c1c(F)cccc1Cl,-3%,-1%
COCCNc1nnc(SCC(=O)NC(=O)c2ccc(Cl)cc2)s1,-11%,3%
COc1ccc(N2CCN(c3nc(=S)n(-c4ccccc4)c(C)c3C(C)=O)CC2)cc1,i,3%
COc1ccc(Br)cc1/C=N/NC(=O)Cn1nnnc1N,i[7.34 µM],-4%[7.34 µM]
CC(C)CN(C(=O)C(C)N1C(=O)c2ccccc2C1=O)c1c(N)n(Cc2ccccc2)c(=O)[nH]c1=O (stereo not given),i,-18%
CCN(CC)C(=O)c1cc2c(=O)c3cc(Cl)ccc3oc2nc1C,17%,15%
CC1CN(Cc2nc3c(c(=O)[nH]c(=O)n3C)n2CCCc2ccccc2)CC(C)O1 (stereo not given),-13%,-8%
CCOC(=O)c1ccc(NC(=O)c2n[nH]c(=O)c3ccccc23)cc1,0%,-4%
COc1cc(NC(=O)CSc2nc(=O)n(CCN3CCOCC3)c3c2CCCC3)cc(OC)c1,-3%,-10%
CC(O)[C@H]1CNC(=O)C(=O)N1CC(C)(C)C (stereo not given in full),-13%,-4%
CN(CC(=O)Nc1c(Cl)cccc1Cl)C(=O)CCc1nc2sc3c(c2c(=O)[nH]1)CCCC3,-25%,-12%

# Shown with values under each structure: entries from further up.
# Below each SMILES – Vaccinia mCherry | Vaccinia Venus
> COc1cc(NC(=O)C2CCN(S(=O)(=O)c3cccs3)CC2)c(C(=O)O)cc1OC
  -10% | 0%
> CC(C)OCCCNC(=O)c1ccc(Cn2c(=O)c3cccn3c3cccnc32)cc1
  i | -10%

# (next part)
smiles,Vaccinia mCherry,Vaccinia Venus
CC(C)(C)CN1C(N)=NC[C@@H]1Cc1ccccc1,i,-5%
CCOC(=O)C1=C(CSc2nc(-c3ccccc3)ccc2C#N)OC(N)=C(C#N)C1c1ccccc1 (stereo not given),nt,39%[activator]
O=C(Nc1ccc2ccccc2n1)Nc1cccs1,i,-17%
COC(=O)c1sc(NC(=O)COc2ccccc2)nc1C,nt,-6%
COc1ccc(-c2onc(C)c2C)cc1S(=O)(=O)NCc1ccc(Br)cc1,-30%,?
C=C1CCN([C@@H](CC(C)C)C(=O)NN2CCOCC2)S(=O)(=O)c2ccccc21,i,-13%
CCCOc1ccc(OCCSc2nnc(N)s2)cc1,nt,-24%
Cc1nc(CC(=O)NCC2Cc3cc(F)cc(-c4ccc(F)c(C)c4)c3O2)cs1 (stereo not given),-10%,-4%
Cn1c(=O)c2[nH]c(CCc3ccncc3)nc2n(C)c1=O,i,-5%
CCN1CCN(CCCNC(=O)c2cnn(-c3ccccc3)c2C2CCN(C(=O)OC(C)(C)C)CC2)CC1,-8%,-8%
N#Cc1ccc(C(=O)OCC(=O)N2CCCCCC2)cc1,-12%,-15%
O=C(Oc1csc(=S)n1C(=O)c1ccccc1)c1ccccc1,-2%,-9%
O=C(Nc1ccccc1-c1ccccc1)C1CCCC1,-7%,-14%
COc1cc2[nH]c(C(=O)N(C)C3CCS(=O)(=O)C3)cc2c(OC)c1OC (stereo not given),-14%,-1%
COc1cc(/C=C/C(=O)O)cc(S(=O)(=O)Nc2ccc3c(c2)CCC3)c1OC,-5%,6%
CCc1ccccc1N(C)C(=O)c1cn(-c2cccc(OC)c2)c(=O)c2ccccc12,-9%,-13%
O=C(Nc1cccc(C(F)(F)F)c1)C1CCN(c2nnc(-n3cccc3)s2)CC1,-10%,-13%
CC(=O)c1ccc(NC2=C(N3CCOCC3)C(=O)c3ccccc3C2=O)cc1,-8%,-19%
Cc1ccc(S(=O)(=O)CCSc2cccc(C(=O)Nc3ccccc3C(=O)O)c2)cc1,-8%,-12%
CCc1ccccc1N1C(=O)C2CC(C)=C(C)CC2C1=O (stereo not given),nt,-5%

# Single values from the entries so far:
# `O=C(Oc1csc(=S)n1C(=O)c1ccccc1)c1ccccc1` – Vaccinia Venus: -9%
# `COc1cc(/C=C/C(=O)O)cc(S(=O)(=O)Nc2ccc3c(c2)CCC3)c1OC` – Vaccinia mCherry: -5%
# `Brc1cc2c(cc1C1OCCO1)OCO2` – Vaccinia Venus: -17%
# `Cc1ccc(S(=O)(=O)CCSc2cccc(C(=O)Nc3ccccc3C(=O)O)c2)cc1` – Vaccinia mCherry: -8%
# `COc1ccc(C(C#N)N2N=C(C)CC2(C)C)cc1` (stereo not given) – Vaccinia Venus: 4%

# (further entries)
smiles,Vaccinia mCherry,Vaccinia Venus
COc1ccc(C)cc1NC(=O)c1ccc(N(C)S(C)(=O)=O)cc1,1%,12%
Cc1ccccc1CN1C(=O)c2ccccc2Sc2ccc(C(=O)N3CCOCC3)cc21,-4%,1%
COc1ccc(-c2cnc3c(NC=O)cc(-c4ccccc4)cn23)cc1OC,1.3µM*,?
O=C(OCC(=O)N1CCCCC1)c1n[nH]c(=O)c2ccccc12,i,-13%
COc1ccc(N/C=C/C(=O)c2cc(OC)c(OC)c(OC)c2)cc1,?,?
Cc1ccc(N(C)C(=O)Oc2ccc(C(=O)c3ccc(Cl)cc3)cc2)cc1,nt,-18%
COc1ccccc1CSc1nc2ccccc2[nH]1,i,-11%
CCn1c(-c2csc(-c3ccc(Cl)cc3)n2)n[nH]c1=S,i[1.46 µM],-14%
Cc1c(NC(=O)CN2C(=O)NC3(CCC(C)CC3)C2=O)c(=O)n(-c2ccccc2)n1C (stereo not given),i,-8%
Cc1ccccc1NC(=O)c1nc(-c2ccncc2)no1,-4%,-8%
CN(C)S(=O)(=O)c1ccc(Cl)c(NC(=O)COC(=O)C2CSC3(C)CCC(=O)N23)c1 (stereo not given),-6%,0%
CCc1ccc(OCC(=O)OC2CCS(=O)(=O)C2)cc1 (stereo not given),-15%,-7%
O=C(CCSc1nc(-c2ccc3c(c2)OCO3)cc(C(F)(F)F)n1)NCc1ccccc1,i,-21%
CCCCN(C(=O)CSCc1ccc(C)cc1)c1c(N)n(Cc2ccccc2)c(=O)[nH]c1=O,-28%,-11%
CN(C)CCO/N=C(\c1ccc(Br)cc1)c1cccnc1,-11%,-8%
Cc1cc(C)n(-c2ccc(-n3ccnc3)nn2)n1,i,0%
Clc1ccc(Nc2nc3cccnc3s2)cc1,5%,-2%
COc1ccc(Nc2nc(N)nc(CSc3nc4ccccc4s3)n2)cc1,?,-20%
CN1C(=O)C(Cc2cccs2)C(=O)N(C)C1=O,-7%,-5%
CCCCCCCC(=O)OCC(O)CO (stereo not given),-19%,-10%
Cc1cccc(N2CCN(C(=O)Cc3c(C(=O)O)c(C)cn3C)CC2)c1C,-10%,-11%
CC(=O)Nc1nc2n(n1)C(c1ccc(F)cc1)C=C(c1ccccc1)N2 (stereo not given),-11%,-3%
COc1ccccc1NC(=O)C(=O)N1CCCC1,i,-3%
CCn1c(SCC(=O)N2CCCc3ccccc32)nc2c(c1=O)SC(C)C2 (stereo not given),i,0%
FC(F)(F)COc1nc(N2CCCCC2)nc(N2CCNCC2)n1,-3%,-18%
COc1cc(/C=N/NP(=S)(c2ccccc2)c2ccccc2)ccc1O,-28%,-22%
C/C(=N/NS(=O)(=O)c1ccc(Br)cc1)c1ccc(NC(=O)c2ccc(C)o2)cc1,-13%,-15%
CC(=O)Nc1cc(-c2ccc(F)cc2)[nH]n1,i,-13%
Cc1cc(C)c2sc(N(CCCN(C)C)C(=O)CN3C(=O)c4ccccc4C3=O)nc2c1,-16%,-27%
Cc1ccc(NC(=O)c2nc[nH]c2C(=O)NCC(=O)OC(C)(C)C)cc1,i,-13%
c1ccc2c(c1)oc1c(NCc3ccc4c(c3)OCO4)ncnc12,nt,?
Cc1cccc(NC(=S)NN2CCN(C)CC2)c1C,nt,-9%
Cc1ccc(S(=O)(=O)c2nnn3c2nc(N2CCCC2)c2sccc23)cc1,-9%,-7%
Cc1ccc(C)c(OCc2cc(C(=O)N(C)Cc3nccn3C)no2)c1,-15%,-14%
O=C(CSc1nc(-c2ccc(F)cc2)nc2ccc(F)cc12)Nc1cccc(C(=O)O)c1,i,-4%
COc1ccc(N2C(=O)CSC2c2ccc([N+](=O)[O-])cc2)cc1 (stereo not given),-13%,-7%
CCOC(=O)c1ccc(Nc2nc3nonc3nc2Nc2cccc(C)c2C)cc1,?,?
CC(C)c1ccc(NC2CCCN(C(=O)c3cc(C(C)C)[nH]n3)C2)cc1 (stereo not given),?,-27%
Cc1ccc(Cl)cc1NC(=O)c1sc(-n2nc(C)c(Cc3ccc4c(c3)OCO4)c2C)nc1C,0%,-4%
O=C(Nc1ccccc1F)OC1CN2CCC1CC2 (stereo not given),i,-13%
C=CCC1(NC(C)c2ccccc2)CCCCC1 (stereo not given),-4%,-30%
COc1ccccc1NC(=O)C1CCCCC1,-11%,0%
O=C1COc2ccc(-c3cc(-c4ccccc4)c4c(n3)-c3cc(Cl)ccc3OC4)cc2N1,4%,-7%
COc1ccc(Cl)cc1-c1cc(C(=O)NCc2ccc(F)cc2)[nH]n1,i,-14%
Cc1cccc(C(=O)Nc2nnc(S(=O)(=O)N(C)Cc3ccccc3)s2)c1,-15%,-23%
O=C(NCc1cccs1)c1ccc(S(=O)(=O)N2CCCCC2)cc1,-15%,-7%
Cc1ccccc1C(=O)Nc1cccc(NC(=O)c2ccc(-c3ccc(Br)cc3)o2)c1,nt,-21%
Cc1ccc(CN(C)C(=O)CSc2nnc3n2CCCCC3)c(C)c1,i,-16%
CCCCN(CC(=O)NC1CCCC1)C(=O)C(=O)Nc1ccc2c(c1)OCCO2,-21%,-5%
O=C1c2ccccc2C(=O)N1CC(=O)N1c2ccccc2Sc2ccc(C(F)(F)F)cc21,-12%,-14%
FC(F)(F)c1ccccc1Cc1c(-c2cccc(Cl)c2)nc2c3ccccc3ccn12,-5%,4%
COC(=O)[C@@]1(C(C)C)N=C(c2cc(OC)c(OC)c(OC)c2)[C@]2(O1)C(=O)Nc1ccc(F)cc12,16%,-4%
CCOC(=O)[C@H]1[C@H]2COc3ccccc3[C@@H]2N2C(=O)c3cc(Br)ccc3NC(=O)[C@@]12C,i,-25%
CCN(CC)C(=O)Cn1cc(SCC(=O)Nc2cccc(F)c2)c2ccccc21,-5%,-14%
COc1ccc(C(=S)N2CCN(C)CC2)cc1Br,-14%,-2%
O=C(O)CSc1nnc(-c2ccc3c(c2)OCO3)o1,i,-9%
C=C(C)[C@@H]1CC=C(CN2CCC(CCOC)(C(=O)OCC)CC2)CC1,-27%,-4%
CCCCOC(=O)Nc1ccc(N2CCCCC2)cc1,-17%,-11%
